GLA inh pH 4.5 – inhibitors of human alpha-galactosidase A at pH 4.5 | purified enzyme, 4-MU-alpha-Gal fluorescence, pH 4.5 | activity change, negative = inhibition, % at 105 µM | 230,000 tested, under 10 active; inconclusive = small, poorly fitted or top-dose-only inhibition, or a rising curve; inactive = flat fitted curve, though single readings scatter; no compound was filed as active;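 note: 0% = full activity with enzyme and -100% = basal without enzyme; dose as in the result columns while the protocol names 77 µM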
Target sequence (P06280 whole entry, looked up): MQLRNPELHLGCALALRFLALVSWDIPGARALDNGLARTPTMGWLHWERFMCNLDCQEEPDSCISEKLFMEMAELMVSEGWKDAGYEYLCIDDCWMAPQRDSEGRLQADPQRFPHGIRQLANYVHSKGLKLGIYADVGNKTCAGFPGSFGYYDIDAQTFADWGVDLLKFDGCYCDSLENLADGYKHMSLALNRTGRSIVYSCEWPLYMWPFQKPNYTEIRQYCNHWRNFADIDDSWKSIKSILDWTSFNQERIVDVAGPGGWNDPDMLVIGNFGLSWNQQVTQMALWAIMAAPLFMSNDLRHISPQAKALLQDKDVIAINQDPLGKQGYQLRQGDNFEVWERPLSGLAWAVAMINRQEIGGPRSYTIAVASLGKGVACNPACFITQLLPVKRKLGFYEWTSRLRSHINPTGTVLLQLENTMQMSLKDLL
Rango release inh – inhibitors of RanGTP-induced Rango-importin beta complex dissociation. Biochemical FRET Rango-importin beta, RanGTP-induced dissociation. Potency, µM (highest dose often 46.1 µM), inactives show top-dose activity change, negative = inhibition. 340,000 compounds, 0.071% hits. AID 540253; active means falling FRET ratio curve, often poorly fitted, with flat reads before Ran was added; inconclusive means other falling curves, or compound fluorescence or quenching; inactive means flat or rising ratio curve;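 note: potency is the fitted concentration of half-maximal effect; % of control where 0% means no effect; nearly all actives have a fitted effect of over 45% in size; -100% = wells without RanGTP and RCC1; the record marks most hits as doubtful in a second field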
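Two FRET readings bracket the reaction: one 5 min after compound meets Rango–importin beta, another 45 min after RanGTP-RCC1 (0.6 uM Ran, 0.2 uM RCC1, 2 mM GTP) is added. Only the second defines inhibition.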
Rango-impB inh – inhibitors of Rango-importin beta complex formation. Rango CFP/YFP FRET sensor + importin beta, 45 min. 340,000 compounds, 0.031% hits. Potency, µM (doses to about 92.2 µM), inactives show at the highest dose inhibition of complex formation; active = rising FRET ratio curve, often small or poorly fitted; inconclusive = mostly compound fluorescence or quenching in the first reads; inactive = flat curves in all reads;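 note: potency is the fitted concentration of half-maximal effect; 0% = DMSO wells and 100% = buffer wells lacking importin beta; nearly all actives have a fitted effect of over 15% in size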
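FRET biosensor (snurportin 1 IBB flanked by EYFP and cerulean), 50 nM, with compound 5 min, then 0.125 microM importin beta in PBS, 1 mM DTT, 0.02% Tween-20, 0.1% BSA. CFP/YFP ratio read after 45 min at room temperature; pre-read flags interference.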
miR-21 FLuc – miR-21 reporter, rising signal; AID 2288; HeLa miR-21 FLuc reporter, luciferase, 48 h; 340,000 tested, under 10 active; Potency, µM (top dose mostly 38.3 µM), for the others: at the top dose reporter change, positive = more light; active = well fitted rising curve with a large enough effect; inconclusive = small, poorly fitted or top-dose-only effect; inactive = no such curve, though single readings can be large or run the other way;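 note: % of control where 0% means no effect; miR-21 action dims this reporter so a rising signal means less miR-21 action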
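Using DMEM plus 10% FBS, HeLa miR-21-FLuc cells are incubated with test compounds (final up to about 40uM) for 48 hours; firefly luciferase signal is then imaged following reagent-mediated lysis.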
* = called active by the depositor; ? = inconclusive; nt = not tested or not shown. Not all compounds are listed. The share of hits here may be higher or lower than overall.

canonical_smiles	GLA inh pH 4.5	Rango release inh	Rango-impB inh	miR-21 FLuc
O=C(NCc1ccccn1)c1cc2cc(Br)ccc2oc1=O	0	4%	?	-1%
COc1cccc(-c2nn(-c3ccc(C)cc3)cc2C(=O)N(C)CC(=O)Nc2cccc(F)c2)c1	nt	8%	-0.7%	nt
CC1=C(C(=O)Nc2ccccc2)C(c2ccc(C)o2)n2c(s/c(=C\c3ccco3)c2=O)=N1 (stereo not given)	-8	?	?	-4%
CCCCOC(=O)n1c(SCC(=O)N(CC)CC)nc2ccccc21	-5	-18%	0.2%	-12%
CC(=O)N/C(=C\c1ccccc1)C(=O)OCC(=O)NC(=O)c1ccccc1	nt	-9%	5.8%	nt
CCC(=O)c1ccc(N2CCN(C(=O)COc3ccc(F)cc3)CC2)c(F)c1	-11	-9%	-1.4%	3%
Fc1cc2nccnc2cc1N1CCSCC1	-3	?	?	-13%
COc1cc(NC(=O)CSc2nnc(-c3ccncc3)n2C2CCCCC2)ccc1NC(=O)c1ccco1	-2	-5%	-4.3%	-3%
CCCOc1ccc(-c2nc(C#N)c(N3CCc4ccccc4C3)o2)cc1	4	-7%	0.5%	-3%
CC1(C)CC(=O)c2cn3c(nc2C1)nc1ccccc13	-6	5%	0.2%	3%
CC(C)C(NC(=O)c1c(F)cccc1F)C(=O)N1CCN(c2ccccc2F)CC1 (stereo not given)	nt	2%	3.5%	3%
COc1ccc(C(=O)Nc2ccc(C)cc2C(=O)c2ccccc2)cc1	-3	11%	-1.3%	-16%
CCN(CC)S(=O)(=O)c1ccc(/C=C/C(=O)NC2CCCCC2)cc1	nt	0%	1.0%	1%
O=C(CN(c1ccccc1)S(=O)(=O)c1ccccc1)NCCSc1nc2ccccc2s1	2	-9%	?	-3%
C=CC[n+]1ccn(-c2nc3ccccc3nc2[N-]S(=O)(=O)c2cccs2)c1	7	-19%	?	3%
COc1ccc2c(c1)C(=O)N1[C@H]3c4cc(C)ccc4OC[C@@H]3[C@H](c3ccccc3)[C@]1(C)C(=O)N2	nt	4%	0.0%	nt
COC(=O)C1=C(CSCc2ccccc2)NC(=O)NC1c1cc(C)ccc1C (stereo not given)	9	0%	-2.0%	3%
COc1ccc(OC)c(CNC(=O)c2coc(=O)c3ccccc23)c1	-4	0%	-2.3%	28%
O=C(Cn1cc(C(F)(F)F)ccc1=O)NCC1CCCO1 (stereo not given)	nt	11%	0.7%	nt
O=C(Cc1ccccn1)c1ccc(F)cc1	nt	3%	3.6%	nt
Cc1[nH]c(=S)[nH]c(=O)c1CCC1OCCO1	6	0%	0.0%	-12%
O=C(O)C1=C[C@@H](c2coc3ccccc3c2=O)C[C@@H](OCc2ccc(CO)cc2)O1	0	-12%	-1.0%	-2%
C#CCOCCOCCOCCNc1nc(N2CCN(C(=O)Cn3cc(CCO)nn3)CC2)nc(N2CCN(C(=O)Cn3cc(CCCN=C(N)N)nn3)CC2)n1	nt	10%	1.9%	nt
CC(=O)Nc1ccc(C(=O)N2CCc3cc4c(cc3C2C)OCCCO4)cc1 (stereo not given)	nt	1%	1.6%	1%
CC1(c2ccc(Cl)cc2)NC(=O)N(CC(=O)N2CCN(S(=O)(=O)c3ccccc3)CC2)C1=O (stereo not given)	nt	-6%	-0.5%	nt
COC(=O)c1ccc(-n2nnnc2SCC(=O)Nc2ccccc2C(=O)OC)cc1	-6	11%	1.6%	4%
Cc1ccc(Nc2ncc3c(n2)CC(C)CC3=O)c(C)c1 (stereo not given)	5	-10%	2.9%	-27%
CCC(C)Sc1cccc(-c2nc3cnccn3c2NC2CCCCC2)c1 (stereo not given)	nt	?	?	nt
COc1cc(C2SC(C)C(=O)N2CCc2ccccc2)cc(OC)c1OC (stereo not given)	-4	2%	-0.6%	0%
O=C(NNC1=Nc2ccccc2SC1)c1cccc([N+](=O)[O-])c1	-18	-3%	0.5%	26%
Cc1cccnc1NC(=O)C1CC(=O)N(c2ccc3c(c2)OCCO3)C1 (stereo not given)	nt	-19%	2.0%	nt
O=C(Nc1ccccc1N1CCCC1)C1CCN(S(=O)(=O)c2ccccc2C(F)(F)F)CC1	nt	6%	?	nt
Cc1ccc(NS(=O)(=O)c2ccc(-n3cccn3)cc2)cc1C	nt	-7%	4.6%	7%
COC(=O)c1c(NC(=O)CS(=O)(=O)c2ccccc2)sc(C)c1C	nt	-23%	-1.1%	nt
C[C@H](NS(=O)(=O)c1ccccc1F)C(=O)OCC(=O)Nc1ccc2c(c1)OCCO2	nt	6%	-5.2%	nt
Cc1ccc(NC(=S)NN(C)c2nc(C)cnc2C)cc1	2	-10%	0.5%	-6%
CNc1nnc(CSc2nc(C)cc(C)n2)s1	-4	3%	-4.0%	-8%
CCO[C@H]1OC(C(=O)NCc2nc3ccccc3[nH]2)=C[C@@H](c2ccc(C(F)(F)F)cc2)[C@@H]1CCCO	-15	1%	-2.2%	4%
CCOc1cc(/C=N/Nc2nc(-c3cccs3)c(NC(C)=O)s2)ccc1O	-7	4%	1.5%	-15%
O=C(c1ccccc1)N1CCN(CC#Cc2ccccc2)CC1	0	1%	-3.0%	-46%
O=C(Nc1ccc(Br)cc1)C(c1ccccc1)c1ccccc1	-2	1%	-0.9%	-1%
CC(O)c1cccc(NC(=O)CCCc2ccccc2)c1 (stereo not given)	2	-3%	-6.4%	-23%
O=C(CCCN1CCC(NC(=O)c2ccccc2)CC1)c1ccc(Cl)cc1	nt	0%	-0.1%	1%
Cc1ccc(CC(=O)NCc2ccc(F)cc2)cc1	-5	-1%	3.8%	8%
CC1(C)Cc2c(sc3c2C(=O)N(c2ccccc2)C2=NCCCN23)CO1	-15	-7%	-3.6%	1%
COC(=O)[C@H](Cc1ccccc1)NC(=O)N1CCCCC1	-1	-11%	2.2%	-7%
Cc1ccc([N+](=O)[O-])c(OCCN2CCCCCC2)c1	1	-10%	-0.8%	-10%
CC1Oc2ccccc2N(CC(=O)c2ccc(F)cc2)C1=O (stereo not given)	-5	1%	1.0%	-12%
O=C(COc1ccccc1)NC1CCCN(Cc2ccccc2F)C1 (stereo not given)	nt	-1%	1.2%	0%
Cc1c(C)c2ccc(OCC(=O)Nc3nccs3)cc2oc1=O	nt	7%	-3.5%	-40%

(next part)
canonical_smiles	GLA inh pH 4.5	Rango release inh	Rango-impB inh	miR-21 FLuc
Cc1ccc(C(=O)N2CC(=O)Nc3ccc(C)cc3C2c2ccccc2)cc1 (stereo not given)	nt	11%	-0.1%	0%
O=C1CN(C(=O)COc2ccc(Cl)cc2Cl)c2ccccc2N1	nt	4%	-2.6%	-28%
COc1cc(NC(=O)c2ccco2)c(OC)cc1NC(=O)Nc1cccc(Cl)c1	-15	?	?	17%
Cc1cccc(C)c1OCc1cc(C(=O)N2CCNC(=O)C2)no1	nt	1%	5.9%	-9%
CCN(CC)CC(=O)Nc1sc(C)c(C)c1C(=O)c1ccc(C)cc1	-15	23%	3.1%	-1%
O=C(C[n+]1cccc(O)c1)Nc1ccc(Br)cc1	16	0%	-1.7%	-1%
CCOc1ccc2nc(NC(=O)C3CCCN(S(=O)(=O)c4cccs4)C3)sc2c1 (stereo not given)	-7	4%	5.9%	19%
Cn1c(C(=O)NCC2CCCO2)cc2c(=O)[nH]c3ccccc3c21 (stereo not given)	-2	1%	-0.3%	-14%
CC(=O)c1c(C)nn(CC(=O)NC2CCCN(Cc3ccc(CC(C)C)cc3)C2)c1C (stereo not given)	nt	1%	0.0%	2%
CC1CCC(NC(=O)c2ccc3snnc3c2)CC1 (stereo not given)	nt	11%	-1.4%	-34%
COc1ccccc1N1CCN(C(=O)CSc2nc3ccccc3c(=O)n2CC2CCCO2)CC1 (stereo not given)	-8	1%	-0.8%	20%
Cc1ccc(OCCn2c(C)nc3ccccc32)cc1	nt	-1%	0.3%	7%
O=C(NC1CC1)c1cc(F)c(F)cc1Cl	7	-8%	-1.4%	-1%
CC(C)NC(=O)N(C)C[C@H]1Oc2ccc(NC(=O)Nc3ccc(C(F)(F)F)cc3)cc2C(=O)N([C@H](C)CO)C[C@@H]1C	nt	11%	0.0%	nt
Cc1ccc(Cl)cc1N1CCN(C(=O)C2CCC(=O)N2C(C)C)CC1 (stereo not given)	3	-10%	1.7%	3%
CS(=O)(=O)N(CC(=O)Nc1ccccc1)c1cccc(Cl)c1Cl	3	23%	0.7%	0%
CC1CSc2nnc(CCc3ccccc3)n21 (stereo not given)	-9	10%	-3.0%	-1%
COc1ccc(C2(C(=O)NCCCN3CCOCC3)CCOCC2)cc1	8	1%	-3.5%	-6%
O=C(CCCOc1ccc(Cl)cc1Cl)N/N=C/c1ccccc1O	1	-5%	-3.4%	17%
CCOc1ccc2c(c1)/C(=C(\C(Cl)=C(Cl)Cl)[N+](=O)[O-])N2	-1	?	?	-2%
[O-]/[N+](=C/c1cccnc1)c1ccc(Br)cc1	-3	12%	-0.9%	-24%
COc1cccc(NC(=O)Cn2cnc3sc(C)c(S(=O)(=O)N4CCN(C)CC4)c3c2=O)c1	-2	26%	0.3%	0%
NNC(=O)c1csc(-c2ncc(C(F)(F)F)cc2Cl)n1	5	-8%	0.0%	-11%
O=C(NCc1ccccn1)c1nn(-c2ccccc2)c(=O)c2ccccc12	-35	?	3.4%	8%
O=C(COc1ccccc1)Nc1ccc2oc(=O)ccc2c1	nt	7%	-2.8%	-11%
CCOC(=O)c1sc(N(C)C(C)=O)nc1C	9	-5%	-2.0%	-7%
CC(=O)N1CCN(c2ccc(NCc3ccc(Br)o3)cc2)CC1	nt	-4%	0.1%	nt
NS(=O)(=O)c1ccc(CCNC(=O)c2cc3ccccc3s2)cc1	nt	12%	-0.4%	-1%
CCCSC1=N/C(=C\c2ccsc2)C(=O)S1	1	18%	-1.9%	-3%
CC(=O)c1sc(-c2ccccc2Cl)nc1C	-2	?	-0.1%	-26%
O=C(Nc1ccccc1Cl)C1Cc2ccccc2O/C1=N\O (stereo not given)	nt	12%	1.1%	-58%
Cc1ccc(O)c(-c2cc(C(=O)NCc3ccccc3)[nH]n2)c1	0	12%	5.7%	-38%
O=C(Nc1nccs1)C1=COCCO1	nt	13%	-0.3%	nt
CCn1c(SC/C=C/c2ccccc2)nnc1-c1cccs1	-4	3%	-0.4%	-3%
CS(=O)(=O)n1nc(-c2ccccc2)nc1N	-8	11%	-1.6%	-2%
Cc1cc(C)c(NC(=O)CNC(=O)CN2C(=O)NC3(CCCc4ccccc43)C2=O)c(C)c1 (stereo not given)	nt	3%	-0.9%	nt
CSc1nnc(-c2ccccc2N=Cc2c(C)[nH]n(-c3ccc4ccccc4c3)c2=O)c(=O)[nH]1	-20	-8%	?	-31%
Cn1c(COc2ccccc2)nnc1SCc1cc(=O)[nH]c2ccccc12	4	-3%	1.4%	-3%
CC(=O)Nc1ccccc1C(=O)N1CCc2ccccc21	-2	2%	-0.8%	-4%
O=C(CS(=O)CC(=O)N(c1ccccc1)C(C(=O)NC1CCCC1)c1cccs1)Nc1ccc(F)cc1 (stereo not given)	8	-13%	-0.1%	-2%
COc1cc2[nH]c3c(=O)n4c(nc3c2cc1OC)SCCC4	5	-7%	-0.3%	-30%
Cc1cccn2c(=O)c3cc(C(=O)NCCN4CCOCC4)n(C)c3nc12	nt	-4%	1.4%	-50%
COc1ccc(C(CNC(=O)COc2ccccc2C#N)N2CCOCC2)cc1 (stereo not given)	1	7%	4.0%	-6%
Cc1ccc(NC(=O)NC(=O)COc2c(F)c(F)cc(F)c2F)c(C)c1	nt	-9%	-0.9%	nt

Structures shown so far that have a cyano group (2):
canonical_smiles	GLA inh pH 4.5	Rango release inh	Rango-impB inh	miR-21 FLuc
CCCOc1ccc(-c2nc(C#N)c(N3CCc4ccccc4C3)o2)cc1	4	-7%	0.5%	-3%
COc1ccc(C(CNC(=O)COc2ccccc2C#N)N2CCOCC2)cc1 (stereo not given)	1	7%	4.0%	-6%

Screening results (PubChem)
